From PubChem
Anaer choline gr = inhibitors of anaerobic choline-dependent gram-negative bacterial growth | Gram-negative bacterium anaerobic choline minimal medium, absorbance growth; hits give low values; many inactives read as strong as hits in the columns shown | calls only | hit rate 0.2% among 55,000 | AID 1963822;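 active = growth z-score on choline under -2 at 7 or 20 h with little or no fall on glycerol, limits in tiers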;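 note: stock transfer was 300 nL into about 50 µL; the organism is E. coli; final concentration not given here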
Anaer choline gr early = second read-out of Anaer choline gr, no call of its own (marks repeat the call); z-score; measured here: choline growth z-score, timepoint 1;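 score of optical density at 7 h as mean of two plates; lower means less growth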
An asterisk follows results filed as active; i = inactive; & = joins results of further samples. The list is partial; the hit share may differ from the screen's.

SMILES | Anaer choline gr | Anaer choline gr early
Cc1cc(OCc2nc(C)c(C(=O)NC3CCCCC3)s2)ccc1Cl | i | -0.02
O=C(NC1CC1)c1cccc(Nc2ccnc(-c3cccc(F)c3)n2)c1 | i | -1.1
CC1CCC(NS(=O)(=O)c2ccc3c(c2)c(=O)n(CC(=O)N2CCCC2)c(=O)n3C)CC1 (stereo unspecified) | i | -1.6
CCn1nc(C)c2[nH]c(=S)n(CC3CCCO3)c(=O)c21 (stereo unspecified) | i | -1.5
CN(C)CCc1c[nH]c2ccc(Cn3cncn3)cc12 | i | 0.47&0.56
CCCn1c(C)ccc(-c2noc(CCCC(=O)NCc3cccnc3)n2)c1=O | i | -1.4
CCCN(CCC)C(=O)c1cccc(-c2ccc(S(=O)(=O)N3CCCCC3)cc2)c1 | i | 2.9
Cc1ccc(-c2ncc3c(=O)n(CCN(C)C)c(=O)n(C)c3n2)cc1 | i | -1.1
Cc1cc(SCC(=O)N2CCc3ccccc32)n2ncc(-c3ccc(F)cc3)c2n1 | i | -0.49
Cc1[nH]c(C(=O)Nc2ccc(F)cc2)c(C)c1S(=O)(=O)N1CCCC1 | i | -0.78
Cc1nn(-c2ccc(F)cc2)c2c1c(=O)c(C(=O)N1CCN(c3ccc(Cl)cc3)CC1)cn2C | i | -0.32
Cc1cc(N2CCOCC2)n2nc(CN3CCN(C(C)C)CC3)nc2n1 | i | 0.8
COCCCN1C(=O)c2[nH]nc(-c3cc(C)ccc3O)c2C1c1ccc(OC)cc1 (stereo unspecified) | i | 0.32
Cc1noc2nc(CCC(=O)NCCCN3CCCC3=O)nc(N3CC(C)CC(C)C3)c12 (stereo unspecified) | i | -0.68
Cc1ccc(C(C)NC(=O)c2cccc(C3CCCN(C(=O)NC(C)C)C3)c2)c(C)c1 (stereo unspecified) | i | 0.36
Cc1nn(-c2ccccc2)c2sc(C(=O)Oc3cccnc3)cc12 | i | -0.22
CC1Cc2ccccc2N1C(=O)CN(C)S(=O)(=O)c1ccc2c(c1)C(C)(C)C(=O)N2C (stereo unspecified) | i | -0.49
O=c1[nH]c2nccnc2c(=O)n1Cc1ccc(F)cc1 | i | -1.6
CCOC(=O)c1nn(-c2ccccc2)c(=O)cc1NCCC(c1ccccc1)c1ccccc1 | i | 3
CN(C)c1ccc(C(CNC(=O)C2CCCCC2)N2CCc3ccccc3C2)cc1 (stereo unspecified) | i | -0.52
Cc1ccc(C(=O)NCC(=O)N2CCC(NS(=O)(=O)c3ccccc3)CC2)cc1 | i | -0.13
CCc1c(C)nc(-n2nc(C)cc2NC(=O)c2cccc(Br)c2)[nH]c1=O | i | 0.22
COc1ccccc1NC(=O)c1ccc(=O)n(Cc2ccc(F)cc2)c1 | i | -0.37
CN(CC1COCCO1)c1ccc(NC(=O)c2ccc(Cl)cc2)cc1C(=O)O (stereo unspecified) | i | 0.55
Cc1ccc2c(c1)N(CCCC(=O)Nc1cccc(F)c1)C(=O)CO2 | i | 0.64
Cc1nc(-n2nc(C)c(Cc3ccccc3)c2C)sc1C(=O)N1CCCC1 | i | -1.5
O=C(c1ccccc1F)N1CCN(Cc2cc(=O)n3nc(-c4ccccc4Cl)sc3n2)CC1 | i | 0.2
Cc1nc(CCNC(=O)[C@H]2CSCN2S(=O)(=O)c2ccc3c(c2)CCCC3)cs1 | i | -0.44
CCC(=O)Nc1nc2ccc(NS(=O)(=O)c3cc(Cl)ccc3OC)cc2s1 | i | -1.3
O=C1OC2(c3ccc(O)cc3Oc3cc(Oc4ccc(O)cc4)ccc32)c2ccccc21 (stereo unspecified) | i | 0.7
NS(=O)(=O)c1ccc(Nc2cc(-c3ccccc3)ncn2)cc1 | i | 0.49
Cc1ccc(-c2nc(CN3CCCC(C(=O)NC4CCCC4)C3)no2)cc1 (stereo unspecified) | i | -2
Cc1cc(S(=O)(=O)N2CCC(N3CCOCC3)CC2)ccc1-n1cnnn1 | i | 0.11
Cc1nnc(NC(=O)c2cc(=O)c3cccc(C)c3o2)s1 | i | -1.5
CC1CCN(S(=O)(=O)c2ccc3c(c2)N(CC(=O)NC(C)(C)C)C(=O)CC(C)S3)CC1 (stereo unspecified) | i | 1.9
O=S(=O)(c1ccc(F)cc1F)N1CCn2cccc2C1c1ccc(F)cc1 (stereo unspecified) | i | 1.1
CCCS(=O)(=O)N1CCCN(C2=NS(=O)(=O)C(c3ccc(Cl)cc3)=C2C)CC1 | i | 0.66
Clc1ccc2nnc(CCc3nc(-c4ccncc4)no3)n2n1 | i | 0.15
Cn1c(=O)n(C)c2cc(S(=O)(=O)Nc3cc4c(cc3SC3CCCCC3)n(C)c(=O)n4C)ccc21 | i | -0.07
Cc1oc(-c2cccc(Cl)c2)nc1CN1CCN(S(=O)(=O)c2cccc3nsnc23)CC1 | i | 0.17
COc1cccc(NC(=O)N2CCc3cc(-c4ccc(C(=O)N5CCOCC5)cc4)ccc32)c1 | i | 0.16
CN1C(=O)c2ccccc2Sc2cc(-c3noc(COc4ccc(F)cc4)n3)ccc21 | i | -0.11
Cc1noc2nc(CCC(=O)O)nc(N3CCCC3)c12 | i | -1.4
Cc1cc(C(=O)N2CCCC2c2c(C)noc2C)on1 (stereo unspecified) | i | -0.74
O=C(O)CNC(=O)C(CS)Cc1ccccc1 (stereo unspecified) | i | -0.16&0.2&0.48
COc1cccc(-n2cc(C(=O)Oc3ccc4cnccc4c3)c3ccccc3c2=O)c1 | i | -0.94
COc1ccc(-c2csc(Cc3nc(Cc4ccc(Cl)cc4)no3)n2)cc1OC | i | 0.67
O=c1c(-c2ccccc2)c(N2CCc3ccccc32)c1=O | i | -1.5
Cc1ccc2c(c1)c(=O)n(CCCOC(C)C)c1nnc(SCc3ccc(F)cc3Cl)n21 | i | -0.54
Cc1ccc(-n2nc(C)c3sc(N4CCCN(C(=O)C(C)(C)C)CC4)nc32)cc1 | i | 1.1
C#CCOc1ccc(C2Nc3ccc(CC)cc3[C@H]3OCCC[C@@H]23)cc1 (stereo partly specified) | i | 1.3
CCCOc1ccc(CN2CCCC2c2cc(C)on2)cc1OCC (stereo unspecified) | i | 0.43
CN(C)C(=O)Cn1cc2c(n1)CCCC2 | i | -0.31
CCc1cc(C2CCCN2S(=O)(=O)c2ccc(OC)c(OC)c2)on1 (stereo unspecified) | i | 0.85
Cc1ccc(OC(=O)c2cc(-c3ccc4c(c3)OCCO4)on2)cc1C | i | 0.69
Cc1cc(-n2ccnc(NCCC(C)C)c2=O)ccc1Br | i | -1.9
O=C1COc2cc(S(=O)(=O)N3CCCC(C(=O)N4CCN(c5ccccc5)CC4)C3)c(Cl)cc2N1 (stereo unspecified) | i | -0.51
Cc1cn(S(=O)(=O)c2ccc3c(c2)CCCC3)cn1 | i | -0.25
CC1CCN(C(=O)c2cc(S(=O)(=O)N3CCCC(C(=O)Nc4nccs4)C3)c[nH]2)CC1 (stereo unspecified) | i | -0.66
CC(C)c1nc(CN2CCSCC2)cc(=O)[nH]1 | i | 0.29

(continued)
SMILES | Anaer choline gr | Anaer choline gr early
CCSc1nnc(-c2nn(C)c3c2CN(S(=O)(=O)c2ccc(CC)cc2)CC3)n1CC | i | 1.2
O=C(C1CCN(c2cncnc2N2CCCCC2)CC1)N1CCN(C2CCCCC2)CC1 | i | 0.64
O=C(Nc1ccc(F)cc1Cl)c1nc(N2CCOCC2)c2oc3ccccc3c2n1 | i | -0.31
Cc1ccc(COC2CN(C(=O)C3CCCCC3)C2)cc1 | i | -0.63
CCc1ccc(-c2ccc(=O)[nH]n2)cc1S(=O)(=O)N1CCCCC1 | i | -0.96
CCC1Cn2c(C(=O)NCCCOC)cc3c(Cl)ccc(c32)O1 (stereo unspecified) | i | 0.85
CCC(C(=O)NC(C)C)N1C(=O)CCn2nc(C)cc21 (stereo unspecified) | i | -0.89
Cc1ccc(CCNC(=O)CCn2cccc2)cc1 | i | -0.06
O=C1COc2ccc(C(=O)NC3CCCCC3)cc2N1 | i | -0.99
COc1ccc(C(=O)NC(Cc2ccccc2)c2ccccc2)c(OC)n1 (stereo unspecified) | i | 0.82
Cc1ccc(NC(=O)C2Oc3ccccc3NC2=O)c(C)c1 (stereo unspecified) | i | -0.56
Cc1nn(C)c(C)c1CN(C)C(=O)c1cnn2c(C(F)(F)F)cc(-c3ccc(Br)cc3)nc12 | i | -1.3
Cc1ccc(F)cc1S(=O)(=O)N1CCCN(c2nc3cccnc3s2)CC1 | i | 1
O=C(Nc1ccc(N2CCN(C(=O)c3ccccc3F)CC2)cc1)c1cccc(-n2cnnc2)n1 | i | 0.35
O=C(Nc1cccc(-c2nc3cccnc3s2)c1)c1ccc2ccccc2n1 | i | 0.47
COC(=O)c1sccc1NC(=O)Nc1cc(NC(=O)c2ccccc2)ccc1N1CCCC1 | i | 0.74
COc1ccc(-c2nn3c(=O)cc(CSc4ccc(C)cc4)nc3s2)cc1 | i | -0.35
CCn1c(=O)c(-c2noc(C(=O)NCCC3=CCCCC3)n2)nn(-c2ccccc2)c1=O | i | 0.22
O=S(=O)(c1ccc2nc(N3CCN(C4CCCCC4)CC3)cnc2c1)N1CCCCC1 | i | -0.09
CC(C)n1cnc2nc(CSc3ccc(NC(=O)COc4ccc(F)cc4)cc3)cc(=O)n21 | i | 0.42

Whole records, quoted from the list. Screens in order: Anaer choline gr | Anaer choline gr early
CCn1c(=O)c(-c2noc(C(=O)NCCC3=CCCCC3)n2)nn(-c2ccccc2)c1=O is entered as i | 0.22
COc1ccc(-c2nn3c(=O)cc(CSc4ccc(C)cc4)nc3s2)cc1 is entered as i | -0.35
CCC(C(=O)NC(C)C)N1C(=O)CCn2nc(C)cc21 (stereo unspecified) is entered as i | -0.89
CC(C)n1cnc2nc(CSc3ccc(NC(=O)COc4ccc(F)cc4)cc3)cc(=O)n21 is entered as i | 0.42

The list goes on:
SMILES | Anaer choline gr | Anaer choline gr early
CCCn1nnc2cc(-c3noc(COc4ccc(Cl)cc4)n3)ccc21 | i | 0.23
Cc1ccn2c(=O)c(-c3ccccc3)c(O)nc2c1 | i | -0.31
CCc1nc2c(C)nc(Nc3ccc(OC)c(Cl)c3)nc2n1-c1ccc(OC)c(Cl)c1 | i | -1.4
Cc1ccc(C(=O)Nc2ccc(OCc3cc(=O)n4[nH]cnc4n3)cc2)cc1 | i | -0.33
CCn1nc(C)c2c1c(=O)n(Cc1ccccc1)c(=O)n2CC(=O)NCC1CCCO1 (stereo unspecified) | i | -1.9
COc1ccc(-n2c(C)c(C(=O)N3CCOCC3)c3cc(OC)ccc32)cc1 | i | -0.77
O=C(c1nc(Nc2ccc(F)cc2)c2ccccc2n1)N1CCCC1 | i | 0.11
COCCNC(=O)C(C)N1C(=O)CCCc2ccccc21 (stereo unspecified) | i | 0.56
Cc1c(C(=O)N2CCCC2)c(S(=O)(=O)N2CCN(Cc3ccccc3)CC2)c(C)n1C | i | -1.1
COc1ccc(C(=O)N2CCN(C(=O)c3cc4ccccc4[nH]3)CC2)cc1OC | i | 0.51
CCn1cnc2cc(-c3noc(/C=C/c4ccccc4)n3)ccc21 | i | 4.3
COc1ccccc1CNC(=O)CSc1nc2c(-c3ccccc3)csc2c(=O)n1C | i | 0.5
CN1CC2=C(Nc3ncnn3C2c2ccc(Cl)cc2)/C(=C/c2ccc(Cl)cc2)C1 (stereo unspecified) | i | -0.82
CCCC(=O)Nc1ccc(Nc2nc(C)cc(NCC)n2)cc1 | i | -0.41
COc1ccc(C2Nc3ccc(C)cc3[C@H]3OCCC[C@@H]23)c(OC)c1OC (stereo partly specified) | i | -0.49
COc1cccc(NC(=O)CSc2nnc(NC(=O)NC3CCCCC3)s2)c1 | i | -0.67
Cc1ccc(CNC(=O)C2(C)Cn3nc(C)cc3C(=O)N2Cc2cccnc2)cc1 (stereo unspecified) | i | 0.17
O=C(Nc1cccc(Cl)c1)c1cnn(-c2ccc(Br)cc2)c1 | i | -0.43
Cc1[nH]c(C)c(S(=O)(=O)N2CCC(C(=O)Nc3ccc(Cl)cc3F)CC2)c1C(=O)N1CCCCC1 | i | -0.81
CSc1ncn(-c2nc(NC(C)C)nc(N(C)C)n2)n1 | i | 0.61
CC(=O)N1CCN(c2ccc(Nc3cc(C)nc4nc(-c5ccc(C)cc5)nn34)cc2Cl)CC1 | i | 1
Nc1ccccc1NC(=O)c1ccc(CNC(=O)OCc2cccnc2)cc1 | i | 0.48
Cc1csc(C2CCN(C(=O)NC(C)(C)C)CC2)n1 | i | 0.07
O=C(NCc1c(-c2ccccc2)nc2n1CCS2)c1ccc(S(=O)(=O)N2CCCCC2)cc1 | i | 0.66
CCN(CCN(C)C)c1ncc(C(=O)O)cc1NS(=O)(=O)c1ccc(Br)cc1 | i | 0.46
COC(=O)c1sccc1NC(=O)N1CCN(C(=O)c2nsc3ccccc23)CC1 | i | 4.5
Cc1ccc2nc(C3=C(O)CN(c4ccc(Cl)cc4)C3=N)[nH]c2c1 | i | 0.37
COc1ccc(C2C3=C(CC(c4ccccc4O)CC3=O)Nc3onc(C)c32)cc1OC (stereo unspecified) | i | -1.3
CC(C)(C)SCCNC(=O)CN1c2ccc(F)cc2-c2ccccc2S1(=O)=O | i | 0.55
COc1ccc(S(=O)(=O)[C@H]2CS(=O)(=O)C[C@@H]2N2CCOCC2)cc1 | i | 0.54
CC1CCN(S(=O)(=O)c2ccc(-c3nnc(C4CC4)o3)o2)CC1 | i | -0.11
CN/C(=C/[N+](=O)[O-])NCCSCc1csc(CN(C)C)n1 | i | 0.48
O=C1CCCc2[nH]c(=O)c(C(=O)Nc3ccc4c(c3)OCCO4)cc21 | i | 1.9
Cn1c(=O)c2nc(S(=O)(=O)CCC(=O)Nc3ccc(F)cc3Cl)n(C)c2n(C)c1=O | i | 1.5

An excerpt of these results, with tabs.
mol	Anaer choline gr	Anaer choline gr early
CC1CCN(S(=O)(=O)c2ccc(-c3nnc(C4CC4)o3)o2)CC1	i	-0.11
CC(=O)N1CCN(c2ccc(Nc3cc(C)nc4nc(-c5ccc(C)cc5)nn34)cc2Cl)CC1	i	1
O=C(NCc1c(-c2ccccc2)nc2n1CCS2)c1ccc(S(=O)(=O)N2CCCCC2)cc1	i	0.66
Nc1ccccc1NC(=O)c1ccc(CNC(=O)OCc2cccnc2)cc1	i	0.48
CC(C)(C)SCCNC(=O)CN1c2ccc(F)cc2-c2ccccc2S1(=O)=O	i	0.55
